Screening results deposited in PubChem BioAssay by several laboratories.
Beta2AR agonist = beta2AR agonists driving receptor internalization, primary screen, cell-based, FAP fluorogen, flow cytometry; Am2.2-beta2AR cells; reference of the scale not given here; response, % (concentration not given with the values); 0.43% of 340,000 active; AID 504454, 2011;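 active means response above a set limit, near 3 SD of response in nonfluorescent compounds, cut at about 42% in these data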;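 further: stock transfer was 100 nL into about 11 µL; a reference agonist was the positive control; negative values mostly stem from fluorescent compounds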
ALR inh = inhibitors of human ALR sulfhydryl oxidase, primary screen, biochemical, H2O2 detection, HRP-luminol luminescence, single point. FAD-linked sulfhydryl oxidase ALR (Homo sapiens), P55789. purified ALR, DTT oxidation. inhibition, % (no concentration beside the values). 3.8% of 290,000 active;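 active means mean and each replicate at 75% or more; inconclusive means only one of the two met; inactive means neither met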;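 further: stock transfer was 7.5 nL into about 7.5 µL; 0% = neutral wells and 100% = wells with inactivated enzyme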
HNF4A DNA FP = change in binding of human HNF4A to DNA, primary screen, biochemical, fluorescence polarization, FITC-DNA | Hepatocyte nuclear factor 4-alpha (Homo sapiens), P41235 | 1 h | activity change, % at 10 µM | 0.3% of 360,000 active | AID 1224865, 2016; in the data active means activity change above about 30%, passing the limit was not always enough;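 further: controls were the assay level and a saturating level of protein; the project sought stronger binding though the title names inhibitors; some compounds called inactive have numbers as strong as hits; positive values seem to mean higher polarization but the record does not say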
LANA-H2A inh = blockers of LANA interaction with H2A/H2B – biochemical, FP readout, HTS, primary screen; Protein LANA1 (Human herpesvirus 8 type P (isolate GK18)), Q9QR71; 0.6% of 320,000 active; cell-free LANA-H2A/H2B peptide, fluorescence polarization; AID 2629, 2010; inhibition, % (concentration not given with the values); in the data active means inhibition mostly above about 10%, no sharp cut-off; inactive means mostly below about 6.7%;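 further: stock transfer was 7.5 nL into about 10 µL; 0% = median of vehicle wells and 100% = median of positive control wells; one replicate is shown; the record names a cut of 25% in any replicate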
Target sequence (Q9QR71 whole entry, looked up): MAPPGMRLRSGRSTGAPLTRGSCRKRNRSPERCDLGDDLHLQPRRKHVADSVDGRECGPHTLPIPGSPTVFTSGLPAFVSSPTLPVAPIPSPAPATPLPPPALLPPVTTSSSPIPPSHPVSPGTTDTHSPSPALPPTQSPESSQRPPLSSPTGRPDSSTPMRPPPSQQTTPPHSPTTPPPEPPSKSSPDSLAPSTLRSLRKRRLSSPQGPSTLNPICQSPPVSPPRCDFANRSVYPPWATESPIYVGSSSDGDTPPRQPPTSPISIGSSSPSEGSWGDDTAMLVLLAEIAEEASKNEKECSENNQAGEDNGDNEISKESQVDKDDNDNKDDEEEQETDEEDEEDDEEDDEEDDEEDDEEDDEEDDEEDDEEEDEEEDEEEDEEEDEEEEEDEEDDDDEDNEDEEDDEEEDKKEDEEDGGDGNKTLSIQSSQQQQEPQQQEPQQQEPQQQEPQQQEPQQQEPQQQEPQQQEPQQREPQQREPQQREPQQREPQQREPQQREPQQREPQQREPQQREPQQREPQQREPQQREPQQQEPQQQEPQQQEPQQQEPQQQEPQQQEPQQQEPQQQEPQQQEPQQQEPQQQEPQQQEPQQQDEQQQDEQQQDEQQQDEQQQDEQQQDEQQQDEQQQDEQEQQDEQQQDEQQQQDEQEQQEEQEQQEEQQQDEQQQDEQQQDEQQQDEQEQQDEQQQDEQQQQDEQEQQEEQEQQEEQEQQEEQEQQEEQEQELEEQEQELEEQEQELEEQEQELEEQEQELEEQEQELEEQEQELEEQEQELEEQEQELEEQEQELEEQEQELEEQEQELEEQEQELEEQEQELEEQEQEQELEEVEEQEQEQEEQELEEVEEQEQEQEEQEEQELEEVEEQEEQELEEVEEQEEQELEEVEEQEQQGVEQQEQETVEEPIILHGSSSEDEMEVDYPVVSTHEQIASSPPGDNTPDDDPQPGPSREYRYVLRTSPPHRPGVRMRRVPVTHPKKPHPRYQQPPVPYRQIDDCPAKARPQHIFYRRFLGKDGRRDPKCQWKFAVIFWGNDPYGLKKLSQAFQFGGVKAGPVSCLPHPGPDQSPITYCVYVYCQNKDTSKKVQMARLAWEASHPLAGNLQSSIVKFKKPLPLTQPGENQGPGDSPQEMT
RanGTP-Impb inh = inhibitors of RanGTP-importin-beta interaction, primary screen, biochemical, FRET, CFP-Ran, YFP-importin-beta, homogeneous. 1.1% of 300,000 active. inhibition, % (test concentration not listed). AID 2216, 2009. cell-free CFP-Ran/YFP-importin-beta FRET ratio. Ran GTPase (GTP-bound) - importin-beta complex;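 active means most replicates above 15%; inconclusive means exactly half above 15%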;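 further: 0% = DMSO wells and 100% = Ran loaded with GDP instead of GTP; wells of about 40 µL received 100 nL stock; the first replicate is given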
Vif A3G = inhibitors of Vif binding to APOBEC3G peptide, primary screen, biochemical, TR-FRET, GST-Vif 1-94, biotin-A3G peptide, dose response retest (AID 1117319). Virion infectivity factor (Human immunodeficiency virus type 1 group M subtype B (isolate …. TR-FRET GST-Vif / biotin-A3G peptide binding; higher % means a stronger effect; test concentration not given here; strong numbers were not always called active. one-dose inhibition, %; IC50 in µM for titrated hits. 0.57% of 260,000 active;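 active means above the screen mean plus three standard deviations and confirmed in dose response; inconclusive means results disagree or hit not tested in dose response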;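 further: Vif residues 1-94 fused to GST binding biotinylated APOBEC3G peptide 110-148; 0% = full assay without inhibitor and 100% = GST in place of GST-Vif; retest series ran down from 100 µM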
Calb FLC = C. albicans growth inhibition with fluconazole, primary screen, CaCi-2 strain, Alamar Blue fluorescence | C. albicans CaCi-2 (fluconazole-resistant clinical isolate) + fluconazole, 48 h | growth inhibition, % (concentration not given with the values) | 0.57% of 300,000 active;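 active means most replicates above 75%; inconclusive means exactly half above 75%; inactive means most below 75%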;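 further: all wells also contain fluconazole at 8 µg/ml as a sub-toxic cotreatment; 0% = median of DMSO wells and 100% = median of geldanamycin control wells; wells of about 8 µL received 7.5 nL stock; the first replicate is given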
* = called active by the depositor; ? = inconclusive; . = no result given.

nr | SMILES | Beta2AR agonist | ALR inh | HNF4A DNA FP | LANA-H2A inh | RanGTP-Impb inh | Vif A3G | Calb FLC
1 | Cc1cc(NC(=O)CSc2nc(=O)n(CCCN(C)C)c3c2CCCC3)no1 | -4.7 | -46.0 | 1.0 | 3.0 | -1.3 | -5.8% | 0.4
2 | CCNc1nc(NCC)nc(OCC(=O)O)n1 | -6.3 | . | -0.3 | -2.5 | 2.4 | . | -3.5
3 | O=C(CNC(=O)c1cccs1)N/N=C/c1ccccc1[N+](=O)[O-] | 3.5 | -1.7 | 0.6 | -0.7 | -2.4 | . | 9.3
4 | COc1cc(CN2CCN(Cc3cn(C)c4ccccc34)CC2CCO)cc(OC)c1 (configuration not stated) | 2.2 | -2.5 | 1.0 | -8.2 | 1.3 | . | -1.4
5 | CC(C)Cn1c2nc3ccccc3nc2c2c(=O)n(CCN3CCOCC3)cnc21 | -3.0 | 5.1 | 3.4 | 0.8 | 5.5 | 2.4% | -2.6
6 | Cc1ccc(-c2nnn(CC(=O)Nc3ccccc3N3CCOCC3)n2)cc1 | 22.9 | -9.3 | 0.6 | -0.9 | 9.1 | 27.5% | 2.5
7 | O=C(CC1C(=O)NCCN1C(=O)Nc1ccccc1)Nc1cccc(Cl)c1 (configuration not stated) | 1.9 | 1.3 | 2.4 | -0.5 | -0.7 | . | -13.6
8 | C=CCC1(C#N)C(=S)NC2=C(C(=O)CC(C)(C)C2)C1c1ccc(Br)cc1 (configuration not stated) | 4.5 | 0.2 | 1.5 | -2.2 | 3.8 | ? | 6.5
9 | N#Cc1cc2c([nH]c1=S)CCCCCC2 | -4.0 | . | -0.8 | -2.6 | -1.6 | 0.5% | 0.4
10 | C[N+]1(CCNC(=O)/C=N/O)CCCCC1 | 5.5 | -24.6 | 1.1 | -0.8 | 0.7 | -7.9% | 1.3
11 | C=CCOc1cccc(CNc2ccc3[nH]c(=O)[nH]c3c2)c1 | -0.8 | 99.1* | -0.2 | 4.2 | 12.3 | -2.5% | -6.2
12 | O=C(c1nc2ccccn2c1CNCCCn1ncc2ccccc21)N1CCCC1 | 5.5 | -3.0 | -1.2 | 5.6 | -0.6 | -6.3% | -3.0
13 | CCC(C)NC(=O)COc1ccccc1[N+](=O)[O-] (configuration not stated) | 0.3 | -14.1 | 0.0 | 9.1 | -2.1 | . | 28.0
14 | O=C(Nc1ncc(Cl)cc1Cl)c1c(F)cccc1Cl | -3.5 | -0.4 | -1.5 | 6.4 | 8.1 | 8.2% | -2.9
15 | Cc1nn(-c2ccccc2)c(C)c1NC(=O)COC(=O)c1ccc(Cl)c(N)c1 | 4.1 | -5.5 | -2.0 | 1.0 | 4.3 | -10.2% | .
16 | CC12CC3CC(C)(C1)CC(C(=O)Nc1nn[nH]n1)(C3)C2 | 8.4 | 1.0 | 0.7 | 2.7 | 3.8 | -1.1% | -15.4
17 | COC(=O)c1[nH]c2ccc(F)cc2c1NS(=O)(=O)c1ccc(OC)cc1 | 0.7 | 2.7 | 2.9 | -3.3 | -3.0 | 2.3% | -2.4
18 | CCOC(=O)C(NC(=O)Nc1ccccc1)(OCC)C(F)(F)F (configuration not stated) | -8.2 | -52.0 | -1.6 | -0.5 | 0.4 | 3.5% | 0.1
19 | CCOC(=O)C1(Cc2ccc(Cl)cc2)CCN(C(C)Cc2ccc(O)c(OC)c2)CC1 (configuration not stated) | 7.0 | . | 6.5 | -1.3 | -3.1 | . | 0.9
20 | Cc1ccc(C)c(NC(=O)CC2Oc3ccccc3NC2=O)c1 (configuration not stated) | 1.0 | -4.4 | -3.3 | -2.8 | 1.7 | -3.8% | 3.3
21 | CCOC(=O)c1c(-c2ccccc2)csc1NC(=S)NC(=O)c1ccccc1 | 0.2 | 10.5 | -0.7 | -3.7 | ? | 2.9% | -19.3
22 | COC(=O)Nc1nc2ccc(Sc3ccccc3)cc2[nH]1 | 4.0 | . | 1.7 | 3.9 | ? | . | .
23 | Cc1sc2ncnc(SCC(=O)Nc3ccc(S(=O)(=O)N4CCOCC4)cc3)c2c1C | -8.1 | -3.2 | 6.0 | -6.0 | . | -16.1% | .
24 | COCCCNC(=O)c1cn(C)c(=O)c2c1c1ccccc1n2C | 14.2 | -3.4 | 1.8 | -0.9 | -0.2 | -1.9% | 1.8
25 | COc1cc(/C=C2\SC(=S)NC2=O)ccc1OS(=O)(=O)c1ccccc1 | . | 56.9 | . | -1.0 | -1.6 | 29.8% | 29.1
26 | COc1cc(C)ccc1OCC(=O)OCC(=O)c1ccc[nH]1 | -4.5 | . | 0.8 | . | . | -2.8% | .
27 | CC(=O)N1CCN(C(=O)c2ccc(Cl)c(NC(=O)c3cccs3)c2)CC1 | -9.4 | 0.7 | 0.8 | -2.7 | 2.8 | 5.0% | 2.4
28 | CN(/N=C/c1ccncc1)C1=NCCN1 | 5.7 | -2.5 | 5.3 | 9.2 | ? | 0.8% | 0.1
29 | CCN1CCN(c2nc3c(c(=O)[nH]c(=O)n3C)n2CCCSc2ncccn2)CC1 | -11.2 | -3.5 | 2.8 | -10.6 | 9.0 | ? | 0.9
30 | O=C(CN1C(=O)c2ccccc2C1=O)Nc1cccc(Cl)c1 | -2.3 | -3.7 | -1.1 | -1.4 | -0.5 | 2.1% | -10.4
31 | CCOc1ccc(S(=O)(=O)N2CCCCC2)cc1NC(=O)CSCc1c(C)noc1C | 13.1 | -13.0 | 0.3 | -1.7 | -1.5 | 0.1% | -4.7
32 | COc1ccc(C(=O)NCc2ccc(Cl)cc2)cc1S(=O)(=O)N1CCCC1 | -0.1 | . | -0.4 | -7.8 | . | 0.0% | .
33 | CCOc1ccccc1NC(=O)C1C2C=CC(O2)C1C(=O)O (configuration not stated) | 5.8 | -7.3 | -0.1 | -6.2 | ? | 6.7% | -0.5
34 | COc1ccc(-c2oc(NC(=O)CSc3ncn[nH]3)c(C#N)c2-c2ccc(OC)cc2)cc1 | 1.8 | 22.3 | 0.9 | 1.9 | 3.5 | 2.7% | -0.1
35 | O=C1OC[C@H]2CCCC[C@@H](CO)ON12 | -2.8 | . | 1.2 | . | . | -0.3% | .
36 | O=C(NCc1ccco1)c1ccc(-c2csnn2)cc1 | -4.1 | . | -2.7 | -5.6 | 3.4 | . | -1.2
37 | Cc1cc(C(=O)NNC(=O)c2ccc(Cl)cc2Cl)c(C)o1 | -2.8 | 4.4 | 1.5 | -5.3 | 3.5 | -1.0% | -1.6
38 | Clc1cccc(Nc2nc(-c3ccncc3)nc3ccccc23)c1 | 6.2 | -11.1 | 8.0 | -2.3 | -1.2 | 3.3% | 22.6
39 | CCOC(=O)c1cc(C#N)c(SCC(=O)c2cc(C#N)c(SC)nc2C)[nH]c1=O | 4.0 | 1.7 | 1.2 | 4.2 | 60.4* | -4.8% | -4.7
40 | O=C(c1cc(COc2ccc(F)cc2Cl)on1)N1CCc2ccccc2C1 | 0.2 | -6.6 | -1.1 | -12.4 | 7.1 | -1.9% | 5.7
41 | O=C(CN1CCN(c2ccc(O)cc2)CC1)Nc1ccc(S(=O)(=O)N2CCCC2)cc1 | 5.2 | 88.0* | 1.8 | 2.1 | . | 0.6% | .
42 | Fc1ccc(OCCOCCN2CCNCC2)cc1 | -7.0 | -18.9 | 5.6 | 0.6 | -0.6 | . | 0.5
43 | CCOC(=O)c1[nH]c(C)c(CN(CCc2ccccc2)C(=O)CCC(=O)O)c1C | -7.0 | -1.0 | 15.7 | 3.1 | 0.9 | -2.6% | -1.9
44 | COc1cccc(C2CC(c3ccccc3)=NN2S(=O)(=O)c2ccccc2)c1OC (configuration not stated) | -4.7 | -15.8 | 9.6 | -3.0 | 2.3 | . | -12.6
45 | COc1ccc(-c2nc(CSCC(=O)N3CCC(C(N)=O)CC3)c(C)o2)cc1OC | 7.3 | 98.6* | 0.0 | -3.7 | -1.5 | 3.9% | 3.1
46 | O=C(Nc1nnc(-c2ccco2)s1)C1CCCCC1 | -9.4 | 42.4 | 4.7 | 4.7 | -0.7 | 22.7% | -7.7
47 | CCOC(=O)CNc1ncnc2nc[nH]c12 | -3.4 | -12.1 | -1.0 | 3.3 | -4.1 | -4.4% | -7.0
48 | Cc1ccc(-c2noc(-c3ccccc3C(=O)NCc3ccco3)n2)cc1 | -8.9 | 0.0 | 0.4 | 1.4 | -3.4 | 1.5% | -46.6
49 | CCOC(=O)C(=CNc1cc(C)nn1-c1ccc(Cl)cc1)C(=O)OCC | -19.9 | 4.0 | -0.9 | -1.6 | ? | -8.4% | 1.0
50 | c1ccc(OCc2nnc(-c3ccccc3)o2)cc1 | 0.6 | -2.9 | 2.9 | 5.3 | -3.3 | -3.3% | -15.2
51 | Nc1nc2nc(-c3ccc(F)cc3)cc(C(F)(F)F)n2n1 | -1.6 | 2.5 | 0.3 | -1.2 | -5.6 | 12.1% | -2.2
52 | COc1ccc(OCC(=O)Nc2ccc3c(c2)nc(CCN2CCN(C)CC2)n3C)cc1 | 52.4* | -3.0 | 0.8 | -0.8 | 2.1 | . | -1.2
53 | O=C(CCCNC(=O)c1ccc(Cl)cc1)Nc1ccccc1C(F)(F)F | 5.4 | -1.4 | -1.7 | 2.4 | 1.8 | 1.7% | -10.4
54 | CCC(=O)Nc1cccc(-c2nc3ccc(C)cc3o2)c1 | -8.1 | 6.2 | 0.3 | 11.7 | -2.9 | -3.4% | 17.5
55 | COc1ccccc1NS(=O)(=O)c1cccc(NC(=S)NCCN2CCOCC2)c1 | -7.0 | 10.3 | -0.2 | -3.4 | 4.6 | ? | -1.7
56 | CCOC(=O)c1cnn(-c2cc(C)c3ccccc3n2)c1N | -7.2 | -14.4 | 1.3 | 6.9 | 5.0 | 1.3% | 0.2
57 | O=C(C1CCCN(S(=O)(=O)c2cccc3nsnc23)C1)N1CC=C(c2ccccc2)CC1 (configuration not stated) | 4.2 | -12.0 | -0.5 | -2.0 | . | 4.7% | .
58 | Cc1nnc(SCC(=O)c2cc(C)n(-c3c(C)n(C)n(-c4ccccc4)c3=O)c2C)s1 | 12.2 | 8.7 | -2.5 | -3.8 | -1.6 | 14.6% | 2.3
59 | CCOC(=O)c1c(NC(=O)c2c(C)noc2C)sc2c1CCCCC2 | 1.1 | -4.1 | 1.4 | -2.9 | 0.7 | -6.4% | -4.4
60 | Cc1cc(C)n(CCC(=O)Nc2ccc(-c3ccno3)cc2)n1 | 13.1 | -10.9 | -0.4 | -3.4 | 4.9 | . | 24.1

Remaining list, next part.
nr | SMILES | Beta2AR agonist | ALR inh | HNF4A DNA FP | LANA-H2A inh | RanGTP-Impb inh | Vif A3G | Calb FLC
61 | COc1cc(OC)c2cc(C(=O)N[C@@H](Cc3ccccc3)C(=O)O)n(C)c2c1 | -2.4 | 4.7 | -7.8 | 2.3 | 1.1 | 0.8% | 6.6
62 | CCCNC(=O)Nc1cc(OC)c(OC)cc1Cc1nccc2cc(OC)c(OC)cc12 | -11.2 | 0.2 | -7.1 | -3.2 | 4.4 | 9.7% | 4.5
63 | Cn1c(=O)c2c(ncn2CC(COCc2ccccc2Cl)OCc2ccccc2Cl)n(C)c1=O (configuration not stated) | -3.6 | -52.2 | 0.8 | 2.7 | 1.7 | 5.3% | -10.8
64 | O=C(Nc1ccc(C(=O)N2CCCC2)cc1)c1ccc2c(c1)OCO2 | 8.9 | -7.5 | -0.7 | -3.4 | 4.7 | -1.8% | 0.1
65 | O=C(NCCCn1ccnc1)c1ccc(Cl)cc1 | 4.1 | -5.8 | -1.9 | -2.4 | 3.7 | 0.8% | -2.0
